GLA inh pH 4.5 – inhibitors of human alpha-galactosidase A at pH 4.5; purified enzyme, 4-MU-alpha-Gal fluorescence, pH 4.5; 230,000 tested, under 10 active; activity change, negative = inhibition, % at 105 µM; P06280; inconclusive = small, poorly fitted or top-dose-only inhibition, or a rising curve; inactive = flat fitted curve, though single readings scatter; no compound was filed as active;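 also: 0% = full activity with enzyme and -100% = basal without enzyme; dose as in the result columns while the protocol names 77 µM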
miR-21 reporter – raises the signal of a miR-21 reporter. HeLa miR-21 FLuc reporter, luciferase, 48 h. Potency, µM (series often up to 38.3 µM), for the others: at the highest dose reporter change, positive = more light. 340,000 tested, under 10 active; active = well fitted rising curve with a large enough effect; inconclusive = small, poorly fitted or top-dose-only effect; inactive = no such curve, though single readings can be large or run the other way;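 also: % of control where 0% means no effect; miR-21 action dims this reporter so a rising signal means less miR-21 action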
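Using DMEM plus 10% FBS, HeLa miR-21-FLuc cells are incubated with test compounds (final up to about 40uM) for 48 hours; firefly luciferase signal is then imaged following reagent-mediated lysis.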
Rango dissoc inh – inhibitors of RanGTP-induced Rango-importin beta complex dissociation | O95149+P62826 | Biochemical FRET Rango-importin beta, RanGTP-induced dissociation | Potency, µM (highest dose often 46.1 µM), for the others: at the top dose activity change, negative = inhibition | actives 0.071% (n = 340,000) | AID 540253; active means falling FRET ratio curve, often poorly fitted, with flat reads before Ran was added; inconclusive means other falling curves, or compound fluorescence or quenching; inactive means flat or rising ratio curve;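 also: potency is read from the fitted curve at half-maximal effect; % of control where 0% means no effect; nearly all actives have a fitted effect of over 45% in size; -100% = wells without RanGTP and RCC1; the record marks most hits as doubtful in a second field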
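Recombinant Rango FRET biosensor (EYFP–snurportin 1 IBB–cerulean CFP10) at 0.1 uM premixed with 0.25 uM importin beta in PBS, 1 mM DTT, 0.02% Tween-20, 0.1% BSA. Compound added 5 min; RanGTP-RCC1 (0.6 uM Ran, 2 mM GTP, 0.2 uM RCC1) then triggers release, read at 45 min.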
Rango-impB inh – Rango-importin beta binding inhibition; Q14974; Rango CFP/YFP FRET sensor + importin beta, 45 min; Potency, µM (titrated, usually from 92.2 µM), for the others: at the top dose inhibition of complex formation; actives 0.031% (n = 340,000); AID 540263; active = rising FRET ratio curve, often small or poorly fitted; inconclusive = mostly compound fluorescence or quenching in the first reads; inactive = flat curves in all reads;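 also: potency is read from the fitted curve at half-maximal effect; 0% = DMSO wells and 100% = buffer wells lacking importin beta; nearly all actives have a fitted effect of over 15% in size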
Target sequence (Q14974 whole entry, looked up): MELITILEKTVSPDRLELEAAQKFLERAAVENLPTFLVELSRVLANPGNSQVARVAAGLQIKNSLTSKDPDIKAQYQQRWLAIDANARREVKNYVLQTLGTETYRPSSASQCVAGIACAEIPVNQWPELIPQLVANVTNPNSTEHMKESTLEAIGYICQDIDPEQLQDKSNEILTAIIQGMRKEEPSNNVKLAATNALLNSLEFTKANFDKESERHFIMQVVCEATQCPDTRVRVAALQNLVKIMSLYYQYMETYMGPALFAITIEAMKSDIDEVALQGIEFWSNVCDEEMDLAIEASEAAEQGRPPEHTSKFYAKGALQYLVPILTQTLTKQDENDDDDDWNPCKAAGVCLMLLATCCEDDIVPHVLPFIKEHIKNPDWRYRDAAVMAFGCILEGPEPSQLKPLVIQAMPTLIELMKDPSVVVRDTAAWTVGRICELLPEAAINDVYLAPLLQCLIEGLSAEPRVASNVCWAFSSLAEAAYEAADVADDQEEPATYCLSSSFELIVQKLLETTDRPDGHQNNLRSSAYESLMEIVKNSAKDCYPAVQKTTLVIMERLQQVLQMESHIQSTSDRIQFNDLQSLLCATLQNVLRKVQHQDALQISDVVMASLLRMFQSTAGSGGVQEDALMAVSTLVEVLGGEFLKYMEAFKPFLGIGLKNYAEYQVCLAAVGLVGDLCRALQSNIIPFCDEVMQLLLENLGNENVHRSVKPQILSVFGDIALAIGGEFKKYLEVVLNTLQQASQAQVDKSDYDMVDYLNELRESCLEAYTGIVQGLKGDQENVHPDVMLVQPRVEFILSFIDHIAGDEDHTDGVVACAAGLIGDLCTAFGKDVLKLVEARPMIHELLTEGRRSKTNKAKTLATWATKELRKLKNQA
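FRET biosensor Rango (snurportin 1 IBB between N-terminal EYFP and C-terminal Cerulean), 50 nM in PBS/1 mM DTT/0.02% Tween-20/0.1% BSA, preincubated 5 min RT with compound; 0.125 microM importin beta added, 45 min RT, CFP/YFP FRET ratio read.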
Starred values were filed as active, the others as inactive; ? = inconclusive; . = no result given. A portion of the library (hit frequency here may not be typical).

miR-21 reporter,Rango-impB inh,Rango dissoc inh,GLA inh pH 4.5,mol
.,0.1%,14%,.,COc1ccc(Cl)cc1NC(=S)NC(=O)c1ccco1
-41%,-2.1%,-10%,5,c1nc(NCCN2CCOCC2)c2sc3nc(N4CCOCC4)c4c(c3c2n1)CCC4
-20%,-5.1%,1%,7,NS(=O)(=O)c1ccc(NC(=S)NC2CCCCCC2)cc1
.,?,?,.,CCCCn1c(=NC(C)=O)c(C#N)cc2c(=O)n3cccc(C)c3nc21
-3%,-1.9%,-15%,-7,CCc1cccc(NC(=O)CCS(=O)(=O)c2cccc3nonc23)c1
-1%,0.8%,24%,.,O=C(Nc1ccc(O)cc1)c1ccc2c(c1)C(=O)N(N1C(=O)c3ccccc3C1=O)C2=O
6%,7.1%,1%,.,NC(=O)NC(Cc1ccccc1)C(=O)NCCCSc1ccccc1 (stereo not drawn)
-31%,2.7%,-12%,-2,N/C(=N\OC(=O)C1CCCCC1)c1cccc([N+](=O)[O-])c1
1%,-0.7%,-4%,-5,CCOC(=O)CNC(=S)N(Cc1ccccc1)Cc1ccccc1F
.,-1.0%,0%,.,O=C(Cc1ccsc1)OCC(=O)c1ccccc1
16%,?,-8%,3,CCOc1ccccc1C1CC(=O)NC2=C1C(=O)CCC2 (stereo not drawn)
0%,2.9%,12%,3,COC(=O)CSc1nnc(CNC(=O)Cc2ccccc2)n1-c1ccccc1OC
-3%,3.3%,-8%,-3,CC1(C)Cc2c(c(=S)nc(-c3ccccc3)n2CCO)CO1
-7%,-0.3%,10%,.,FC(F)(F)c1ccccc1CNCc1ccc2c(c1)OCO2
1%,?,-21%,.,Cc1ccc(NC(=O)C2CCCN(S(=O)(=O)c3c(C)noc3/C=C/N(C)C)C2)c(C)c1 (stereo not drawn)
-62%,0.1%,-17%,.,COc1ccc2cc(-c3ccn[nH]3)ccc2c1
-6%,3.7%,-11%,-6,O=S(=O)(NCc1ccco1)c1ccc(S(=O)(=O)N2CCCC2)cc1
-1%,?,?,-5,CCOC(=O)c1c(C)[nH]c(C=C2C(=O)CCCC2=O)c1O
4%,0.7%,0%,.,CC(C)[C@@H](C(=O)N1CCCC1)N1C(=O)N2CCc3c([nH]c4ccccc34)[C@@]2(C)C1=O
-6%,-0.7%,0%,.,COc1ccccc1C(=O)NCCC(=O)NCC(c1ccccc1)N(C)C (stereo not drawn)
-2%,-5.2%,0%,1,CCOc1cc2[nH]c(=S)n(CCCN3CCOCC3)c(=O)c2cc1OCC
-1%,?,?,-12,COc1cc(C(=O)N2C(=O)c3cccc(N)c3C2=O)cc(OC)c1OC
2%,-1.2%,-14%,-16,CN1N=C(c2ccc(Cl)cc2)CC(c2ccc(Cl)cc2)C1=O (stereo not drawn)
2%,-2.3%,-30%,.,CC(C)=CCCC(C)CN1CCC(n2nccc2NC(=O)c2ccccc2)CC1 (stereo not drawn)
-11%,-4.0%,11%,-3,Cc1cccc(OCCOCCN2CCOCC2)c1C
-1%,0.4%,1%,-6,CC(C)Oc1ccc(C2CC(=O)N(c3cccc(Br)c3)C2=O)cc1 (stereo not drawn)
4%,-0.3%,16%,.,CC(=O)c1cccc(NC(=O)C2=CC(c3cccs3)=NS(=O)(=O)N2C)c1
.,-1.2%,0%,.,C=CCC[C@@H](Cc1ccc(F)cc1)C(=O)OC[C@H](Cc1c[nH]c2ccccc12)NC(=O)[C@@H](CC=C)CC(=O)NCCO
.,-0.8%,2%,.,C#CCOCCOCCOCCNc1nc(N2CCN(C(=O)Cn3cc(CCCCN)nn3)CC2)nc(N2CCN(C(=O)[C@H](C)n3cc(CCC(=O)O)nn3)CC2)n1
-7%,-0.4%,8%,3,O=C(N/N=C\c1cccc(F)c1)c1ccc(Cn2cc(Br)c([N+](=O)[O-])n2)o1
.,-2.1%,-1%,.,COC(=O)c1ccc(C)c(NC(=O)CCCN2C(=O)NC(C)(C)C2=O)c1
-5%,1.2%,18%,13,Cc1nn(CCc2n[nH]c(=S)n2-c2ccc(F)c(Cl)c2)c(C)c1[N+](=O)[O-]
-7%,.,.,7,O=C1CC(c2ccc(Cl)c(Cl)c2)CC(O)=C1C=NCCN1CCNCC1 (stereo not drawn)
0%,0.2%,-1%,-3,O=C(CSc1nnc(-c2ccc(Cl)cc2)n1-c1ccc(Cl)cc1)N/N=C/c1ccccc1C(=O)O
1%,-1.3%,-3%,2,S=c1[nH]nc(-c2cccnc2)n1/N=C/c1ccccc1
.,-3.3%,2%,.,CC(Sc1ncnc2sccc12)C(=O)Nc1ccc(S(=O)(=O)N2CCOCC2)cc1 (stereo not drawn)
-17%,?,3%,4,CC1(C)CC(=O)c2sc(NC(=O)C3CC3)nc2C1
.,2.0%,1%,.,COC(=O)[C@@]1(C)[C@H]2C(=O)N(C)C(=O)[C@H]2[C@H]2CN=C(SCC(=O)c3ccccc3)N21
.,1.2%,0%,.,O=C(OCC(=O)N1CCCCC1)c1ccc2c(c1)C(=O)N(Cc1ccco1)C2=O
-1%,3.1%,-4%,4,CC(C)C(=O)c1cn(CC(=O)O)c2ccccc12
1%,-1.7%,-5%,.,CC(C)Cc1ccc(C(=O)Nc2ccc(Cc3ccncc3)cc2)o1
4%,-2.5%,0%,8,Cn1c(N)c(C(=O)COC(=O)c2ccccn2)c(=O)n(C)c1=O
3%,0.1%,10%,-3,O=C(CN1CCN(Cc2cccc(Cl)c2)C1=O)NCc1cccs1
-7%,.,.,-1,Cc1cccc(NC(=O)Cn2c([N+](=O)[O-])cnc2C)c1C
-1%,2.0%,12%,3,O=C(NCC(c1cccnc1)N1CCN(c2ccc(F)cc2)CC1)c1ccco1 (stereo not drawn)
26%,-3.1%,0%,11,O=S(=O)(c1ccc(NC(=S)N2CCN(c3ccc(O)cc3)CC2)cc1)N1CCOCC1
-5%,-0.4%,-2%,-11,Cc1occc1C(=O)N1CCCc2ccccc21
-66%,4.6%,8%,-4,N#CC1CC(c2ccccc2)=NN1c1ccccc1[N+](=O)[O-] (stereo not drawn)
-1%,-0.1%,1%,-8,COc1cc(C(O)c2nc3ccccc3n2C)cc(OC)c1OC (stereo not drawn)
-8%,.,.,-2,COc1ccc(OC)c2c1sc(=NC(=O)CN1C(=O)CCC1=O)n2C
.,-5.4%,15%,.,Cc1ccc(S(=O)(=O)N2CCOCC2)cc1C(=O)OCC(=O)NCCc1ccc(F)cc1

Source: PubChem (National Center for Advancing Translational Sciences (NCATS))
